Screening data from PubChem BioAssay.
HSV replic up – enhancers of HSV replication in host cells, fold increase, host cell viability; HSV replication augmentation in cells; AID 1956, 2009; actives 0.005% (n = 220,000); maximum fold increase;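 active means peak rise of 1.5-fold or more in the series; tested in PC3 cells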;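 further: first round at 10 µM; read as green reporter fluorescence; hits show the peak of a series up to 25 µM; 1 = signal of infected wells without compound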
GALR2 ag – GALR2 receptor agonists, primary screen, cell-based; Galanin receptor type 2 (Homo sapiens), O43603; GALR2-expressing cells, agonist activation read-out; activation, %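 (tested at 5 µM)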; actives 0.48% (n = 140,000); AID 803, 2007;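 active means above mean plus 3 SD of all compounds, about 5% in these data, not always enough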;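 further: 0% = vehicle buffer wells and 100% = reference agonist at full effect; tested in CHO reporter cells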
INS promoter inh – inhibitors of insulin promoter-driven GFP, primary screen, imaging, TRM-6 cells (human fetal islet line), eGFP reporter, cell count. reporter expression induced with tamoxifen. inhibition, % at 2 µM. AID 1273, 2008. actives 0.9% (n = 130,000);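 active means inhibition above the mean plus 3 SD, with well images judged a real hit on visual review, cut at about 60% in these data, passing the limit was not always enough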
RGS16-Gao HTS – modulators of RGS16 binding to Galphao, primary screen, biochemical, human proteins, multiplexed bead flow cytometry; Regulator of G-protein signaling 16 (Homo sapiens) + Guanine nucleotide-binding protein …; bead-based flow cytometry RGS16-Galphao binding, fluorescence; actives lie on both sides; binding response (% of control), % at 10 µM; actives 0.38% (n = 220,000); AID 1441, 2008;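 active means below 25% or above 175%, edge rows of some plates excepted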;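 further: Galphao activated by GDP with aluminum fluoride before binding; 100% = wells without compound and 0% = beads without RGS; some results beyond the cut were filed as inactive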
PKD1 inh – inhibitors of human PKD1 kinase, biochemical, fluorescence polarization. inhibition, %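 (about 10 µM by stock and volumes)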. Serine/threonine-protein kinase D1 (Homo sapiens), Q15139. actives 0.056% (n = 200,000). PKD1 kinase fluorescence polarization assay;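 active means inhibition of 50% or more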;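 further: controls were vehicle for no effect and a reference inhibitor for full effect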
Target sequence (Q15139 whole entry, looked up): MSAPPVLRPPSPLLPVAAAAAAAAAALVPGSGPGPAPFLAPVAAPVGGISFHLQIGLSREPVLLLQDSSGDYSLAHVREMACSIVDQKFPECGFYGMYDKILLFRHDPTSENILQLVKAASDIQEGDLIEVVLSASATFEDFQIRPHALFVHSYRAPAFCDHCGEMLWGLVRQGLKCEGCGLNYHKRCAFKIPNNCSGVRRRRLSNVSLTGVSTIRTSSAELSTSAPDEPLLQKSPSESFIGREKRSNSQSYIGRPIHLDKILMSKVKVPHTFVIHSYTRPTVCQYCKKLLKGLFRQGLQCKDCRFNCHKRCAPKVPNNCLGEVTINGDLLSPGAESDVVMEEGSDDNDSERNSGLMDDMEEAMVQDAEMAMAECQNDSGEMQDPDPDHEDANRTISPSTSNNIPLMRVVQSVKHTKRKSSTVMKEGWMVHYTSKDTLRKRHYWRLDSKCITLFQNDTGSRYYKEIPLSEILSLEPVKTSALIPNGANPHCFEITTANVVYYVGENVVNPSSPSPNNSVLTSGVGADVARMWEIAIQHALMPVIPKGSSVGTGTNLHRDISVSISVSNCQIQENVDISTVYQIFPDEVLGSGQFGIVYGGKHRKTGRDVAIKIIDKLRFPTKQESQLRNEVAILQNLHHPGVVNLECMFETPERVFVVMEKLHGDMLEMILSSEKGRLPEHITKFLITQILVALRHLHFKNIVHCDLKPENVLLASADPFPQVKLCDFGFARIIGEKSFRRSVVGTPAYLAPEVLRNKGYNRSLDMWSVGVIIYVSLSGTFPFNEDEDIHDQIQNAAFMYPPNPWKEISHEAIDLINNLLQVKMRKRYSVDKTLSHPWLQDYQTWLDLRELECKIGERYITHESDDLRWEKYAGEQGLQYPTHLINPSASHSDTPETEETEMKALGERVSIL
INS promoter inh cell count – recorded beside INS promoter inh, whose call it bears; normalized cell count, %; measured here: cell count, toxicity; reference of the scale not given here;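 cells exposed to compound for 48 h; stained nuclei by imaging scaled within each plate; lower means fewer cells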
HSV replic up primary fold – further read-out of HSV replic up, marked with its call; fold increase; compound at 10 µM; measured here: primary screen fold increase 10 uM; tested in PC3 cells;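 GFP signal in the first replicate; 1 = infected wells without compound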
The depositor's hits bear a star; i = inactive; · = no result given. Rows are unselected, and some 1.2% of all compounds hit somewhere here.

nr	molecule	HSV replic up	HSV replic up primary fold	GALR2 ag	INS promoter inh	INS promoter inh cell count	RGS16-Gao HTS	PKD1 inh
1	CCNc1nc(NCC)n2c(SCC(=O)NC34CC5CC(CC(C5)C3)C4)nnc2n1	i	1	-1.5	·	·	104	-18
2	Cc1ccc(Cn2ncc3c(N4CCN(Cc5ccc(Cl)cc5)CC4)ncnc32)cc1	·	·	-2.2	14	110	100	9
3	C=CCn1c(COc2ccc(OC)cc2)nnc1SCn1nnc2ccccc2c1=O	i	1.1	0.3	-12	134	106	-5
4	Cc1cc(C(=O)Nc2ccc(Cl)cc2)c(C)n1-c1ccccc1	i	0.71	·	·	·	98	·
5	CCCCOc1ccc(/C=C/C(=O)NC2=Nc3ccccc3NC(C)=C2C(=O)OCC)cc1OC	i	0.98	·	·	·	101	1
6	O=C(O)c1cccc(-c2nnn(Cc3ccccc3Cl)n2)c1	i	0.92	-1.2	28	89	102	-2
7	Nc1nnnn1/N=C/c1cccc(O)c1	·	·	-2.5	-67	89	101	-1
8	CNC(=S)NC12CC3CC(CC(C3)C1)C2	i	0.95	·	21	54	113	12
9	COc1ccc(/C=C2\SC(=O)N(CCNC(=O)Cn3cnnn3)C2=O)cc1	i	0.93	-2.7	20	80	51	-8
10	O=C(c1ccccc1)N(Cc1nc2ccccc2c(=O)[nH]1)C1CCCC1	i	1	·	·	·	95	-4
11	O=C(CSc1nc(C2CC2)nc2ccccc12)Nc1ccc2c(c1)OCCO2	i	0.71	-1.8	·	·	100	-1
12	COC(=O)c1ccc(-n2nnnc2SCC(=O)Nc2cc(OC)ccc2OC)cc1	i	1.1	-3.1	-36	111	114	7
13	CC(=O)c1ccc2c(ccc3ccccc32)c1	i	1	-1.6	14	98	100	-1
14	Cn1ncnc1SCc1cn2cccnc2n1	i	1.1	·	36	58	109	-4
15	CCCCNC(=O)c1c(C)cc(=O)oc1C	i	0.83	-1.4	-16	110	201	2
16	CN=C(Nc1ccc(C(=O)OC)s1)c1ccccc1	i	0.98	·	·	·	101	-4
17	COc1cccc(NC(=O)c2ccccc2C(F)(F)F)c1	i	1	·	·	·	121	-4
18	COC(=O)Cc1c(C(=O)OC)nnn1-c1cccc(C(F)(F)F)c1	·	·	·	-92	115	98	-5
19	O=C(Cc1cccs1)Nc1ccon1	i	0.94	-0.3	-19	95	97	-6
20	O=C(CNC(=O)c1cccc(OC(F)F)c1)OCC(=O)c1ccccc1	i	0.91	·	·	·	95	2
21	O=S(=O)(c1ccc(S(=O)(=O)N2CCCN(Cc3ccccc3)C2)cc1)N1CCCCCC1	i	0.82	-0.6	·	·	102	4
22	CC(C)(C)OC(=O)N[C@@H](Cc1ccccc1)c1nnc(SCC(=O)c2ccc(Cl)cc2)o1	i	0.68	0.1	i	87	79	-3
23	COc1ccc(NC(=O)c2nn(C34CC5CC(CC(C5)C3)C4)cc2[N+](=O)[O-])cc1	i	0.97	0.1	52	71	58	-6
24	CC(C)(C)c1ccc(-c2noc(C(=O)NN)n2)cc1	i	1.1	·	·	·	14*	·
25	CCCCC(=O)NC(=S)Nc1nnn(CCC)n1	i	0.95	·	0	77	84	-8
26	COc1cc2c(C(=O)N3CCN(c4ccccc4C)CC3)c(C)oc2cc1Br	i	0.93	-0.4	-121	82	106	-9
27	CCN1CCN(C(c2cc3cccc(C)c3[nH]c2=O)c2nnnn2Cc2ccccc2)CC1 (stereo unspecified)	i	1.1	-1.1	-25	87	110	-4
28	CCn1ccnc1CNC(=O)CC1C(=O)NCCN1Cc1ccc(OC)cc1OC (stereo unspecified)	i	0.94	·	·	·	102	·
29	O=C(NCCc1ccccc1)C1CCCN1C(=O)Nc1ccc(F)cc1 (stereo unspecified)	i	1.1	-1.3	·	·	97	-4
30	COc1cccc(-c2nn(C)c3sc(C(=O)NCc4ccco4)cc23)c1	i	0.87	-0.8	-61	170	100	-9
31	O=C(CCCn1c(=S)[nH]c2ccsc2c1=O)NCc1ccco1	i	1.1	-2.7	-36	134	101	-6
32	CCn1c(SCc2ccc(C)cc2)nnc1C1CCN(S(=O)(=O)c2ccc(OC)cc2)CC1	i	0.87	-2.8	-71	100	99	4
33	Cc1ccc2[nH]c(=O)c(C(c3nnnn3CC3CCCO3)N3CCCc4ccccc43)cc2c1 (stereo unspecified)	i	0.64	-1.9	16	125	84	-11
34	Cn1c(SCC(=O)NC2CCCC2)nc2cccnc21	i	0.93	-0.3	-25	99	91	0
35	CCC(c1nnnn1C(C)(C)CC)N(CCN1CCOCC1)Cc1cc2cc(C)ccc2[nH]c1=O (stereo unspecified)	·	·	-1.2	9	107	103	-1
36	NS(=O)(=O)c1cc(C(=O)OCC(=O)Nc2ccccc2[N+](=O)[O-])ccc1Cl	i	0.89	·	·	·	99	0
37	Cc1ccc(C(=O)O)cc1-n1c(C)cc(C=O)c1C	i	0.96	·	-7	130	98	-10
38	CS(=O)(=O)N(CC(=O)NCc1ccccn1)c1ccc2c(c1)OCCO2	i	1	-0.2	-37	134	93	-13
39	Cc1nn(-c2ccccc2)c(Cl)c1/C=N/NS(=O)(=O)c1ccc(Br)cc1	i	1	-2.1	69*	134*	102	16
40	COC(=O)c1ccc(CO/N=C/c2ccc(OC)cc2)o1	i	0.78	·	-14	74	107	-3
41	CCOC(=O)N1CCN(C2=NC3(CCCCC3)C(C#N)C(=O)N2)CC1 (stereo unspecified)	i	0.86	-3.2	·	·	31	-10
42	CCC(C)c1ccc(O)c(/C=N/O)c1 (stereo unspecified)	i	0.95	-1.4	41	93	86	-18
43	O=C(Nc1ccccc1C(=O)OCn1nnc2ccccc2c1=O)c1ccco1	i	1.1	-1.7	58	127	102	-7
44	O=C(Nc1ccc(OC(F)(F)F)cc1)c1n[nH]c(Cn2cncn2)n1	i	0.93	-3.2	-3	81	91	6
45	Cc1ccc(CNC(=O)COC(=O)c2c(C)noc2C)cc1	i	0.81	-2.1	55	108	142	0
46	COCCNC(=O)NC12CC3CC(CC(C3)C1)C2	i	1	·	·	·	102	6
47	Cc1ccc2c(C)nc(/N=C(\N)NC(=O)N3c4ccccc4Sc4ccccc43)nc2c1	i	0.72	-0.1	80*	120*	101	0
48	CC(C)(C)c1cc(C(=O)NNc2cccc(Cl)c2)n(Cc2ccccc2)n1	i	1	·	·	·	109	·

Quoted at random: 4 entries already listed.
nr	molecule	HSV replic up	HSV replic up primary fold	GALR2 ag	INS promoter inh	INS promoter inh cell count	RGS16-Gao HTS	PKD1 inh
43	O=C(Nc1ccccc1C(=O)OCn1nnc2ccccc2c1=O)c1ccco1	i	1.1	-1.7	58	127	102	-7
46	COCCNC(=O)NC12CC3CC(CC(C3)C1)C2	i	1	·	·	·	102	6
48	CC(C)(C)c1cc(C(=O)NNc2cccc(Cl)c2)n(Cc2ccccc2)n1	i	1	·	·	·	109	·
41	CCOC(=O)N1CCN(C2=NC3(CCCCC3)C(C#N)C(=O)N2)CC1 (stereo unspecified)	i	0.86	-3.2	·	·	31	-10

Remaining list, next part
nr	molecule	HSV replic up	HSV replic up primary fold	GALR2 ag	INS promoter inh	INS promoter inh cell count	RGS16-Gao HTS	PKD1 inh
49	Cc1ccc(-n2nnnc2SCC(=O)NCCC2=CCCCC2)c(C)c1	i	1	-4.9	19	124	104	28
50	Cc1c(C#N)c2ncn(CC#N)c(=O)c2n1-c1ccccc1	i	1	-0.7	21	92	101	0
51	Clc1ccccc1OCCN1CCCCC1	i	0.98	0.0	9	109	113	-4
52	O=C(O)c1ccc(NCc2ccc3c(c2)OCO3)cc1	i	0.98	-0.8	·	·	95	9
53	CCCSc1nnc(N2C(=O)CC(c3ccsc3)C3=C2CCCC3=O)s1 (stereo unspecified)	i	1.2	-1.6	·	·	98	-2
54	Nc1ccc2[nH]ncc2c1	i	0.64	-1.1	23	96	92	5
55	Cc1ccc(S(=O)(=O)N2CCN(C(C(=O)Nc3ccc(F)cc3)c3ccccc3)CC2)cc1 (stereo unspecified)	i	1.1	-2.2	·	·	94	3
56	CCn1ncc(C2=NOC(C(=O)NCc3ccccc3)C2)c1C (stereo unspecified)	i	0.68	-1.7	-45	50	131	-6

Part of the list above in order of formula weight, falling.
nr	molecule	HSV replic up	HSV replic up primary fold	GALR2 ag	INS promoter inh	INS promoter inh cell count	RGS16-Gao HTS	PKD1 inh
49	Cc1ccc(-n2nnnc2SCC(=O)NCCC2=CCCCC2)c(C)c1	i	1	-4.9	19	124	104	28
51	Clc1ccccc1OCCN1CCCCC1	i	0.98	0.0	9	109	113	-4
54	Nc1ccc2[nH]ncc2c1	i	0.64	-1.1	23	96	92	5

New compounds follow.
nr	molecule	HSV replic up	HSV replic up primary fold	GALR2 ag	INS promoter inh	INS promoter inh cell count	RGS16-Gao HTS	PKD1 inh
57	C=CCSc1cc(C)nc2c(-c3ccccc3)cnn12	i	1.1	·	·	·	106	·
58	COc1ccc(OC)c(C2C(C#N)=C(N)Oc3c2c(C)nn3-c2ccc(C)cc2)c1 (stereo unspecified)	i	0.84	-2.0	-7	175	98	-3
59	O=C(CCSc1nnc(-c2ccco2)o1)Nc1ccc(F)cc1	i	1.1	·	·	·	119	-5
60	CC(NC(=O)CSc1nnc(-c2cccc(S(=O)(=O)N3CCCCC3)c2)o1)C12CC3CC(CC(C3)C1)C2 (stereo unspecified)	i	0.9	-3.1	19	59	102	2
61	Cc1ccc(-n2c(C)cc(C(=O)CSc3nnnn3C)c2C)cc1	i	1.1	0.3	·	·	98	-6
62	O=S(=O)(c1cccs1)N1CCN(c2ncccn2)CC1	i	1.1	-1.1	3	92	103	2
63	Cc1ccccc1OCC(=O)NC(=S)Nc1ccc2c3c(cccc13)CC2	i	1	-0.3	-53	124	103	-1
64	CN(C)CCCNS(=O)(=O)c1ccc(Cl)s1	i	0.98	·	-5	85	106	-6
65	O=c1c(-c2ccc3c(c2)OCCO3)coc2c(CN3CCOCC3)c(O)ccc12	i	0.87	-1.1	3	123	110	-6
66	CCCCC(=O)c1c(O)c2ccccc2oc1=O	i	0.94	-3.7	·	·	97	-4
67	COc1ccc(/C=C/C(=O)c2ccccn2)cc1	i	1.1	·	19	78	99	-3
68	C=CCc1c(C)nc(C)nc1N/N=C/c1ccc(N(C)C)cc1	i	1	-0.5	26	145	104	-5
69	Cc1ccc(S(=O)(=O)C2C(=O)NC3(C)CC2c2ccccc2O3)cc1 (stereo unspecified)	i	1	-2.2	·	·	94	-3
70	CC(NC(=O)Nc1nnc(C(F)(F)F)s1)(C(F)(F)F)C(F)(F)F	i	0.72	-2.1	35	167	104	-8
71	O=C(CSc1nnc(-c2ccncc2)n1Cc1ccccc1)NCCc1ccccc1	i	0.98	-1.8	-41	124	99	1
72	O=C(Nc1cccc2c1C(=O)NC2=O)c1ccc(N2C(=O)CCC2=O)cc1	i	1.1	·	5	133	99	-4
73	O=C(CCCO)N/N=C/c1cc(Br)ccc1O	i	1.1	-1.1	39	89	90	8
74	Cc1ccc(-n2cc(CNCC3CC(=O)N(C4CC4)C3)c(-c3cccc(C)c3)n2)cc1 (stereo unspecified)	i	0.95	·	·	·	104	3
75	COc1ccccc1OCCn1cc(C#N)c2ccccc21	i	0.91	-1.0	-8	65	106	-5
76	Cc1c(CN(C)C(=O)CSc2nc(-c3ccco3)cc(C(F)(F)F)n2)cnn1C	i	0.92	-1.2	·	·	95	10
77	Cc1[nH]ccc(=O)c1OCC(=O)O	i	0.94	·	·	·	102	·
78	CCCn1c(SCc2nc(N)nc(N3CCCCC3)n2)nc2c1c(=O)n(C)c(=O)n2C	i	0.72	·	20	96	101	-5
79	O=C(N/N=C/c1cccc(C(F)(F)F)c1)C1CCN(c2ncc(C(F)(F)F)cc2Cl)CC1	i	0.88	-1.8	3	104	100	5
80	CCOc1ccc(S(=O)(=O)Nc2nc3cc(OC)ccc3s2)cc1	i	0.8	-2.5	-66	41	104	-2

Screen by screen, as entered above:
GALR2 ag, entries 75–79, in order: -1.0, -1.2, ·, ·, -1.8

New compounds follow:
nr	molecule	HSV replic up	HSV replic up primary fold	GALR2 ag	INS promoter inh	INS promoter inh cell count	RGS16-Gao HTS	PKD1 inh
81	Cc1cc(NC(=O)c2c(F)cccc2Cl)n(-c2nc3ccccc3[nH]2)n1	i	0.9	-1.5	11	124	103	4
82	O=C(CCCOc1ccccc1)Nc1ccc(Cl)cn1	i	0.8	·	·	·	106	-1
83	CC(=O)NCCn1c(SCC(=O)c2ccc(Cl)cc2)nc2ccccc2c1=O	i	0.87	-1.7	46	79	104	0
84	O=C1NCCN1C(=O)c1cccc(Cl)c1	·	·	-1.0	22	85	106	-5
85	CCOc1ccc(C(=S)N2CCCC2)cc1OC	i	1	-1.6	20	140	84	1
